PV pol inh: poliovirus RNA polymerase inhibition | 0.66% of 150,000 active | % elongation, % (compound at 16.7 µg/mL) | poliovirus polymerase elongation, fluorescence polarization; active compounds read low; in the data active means % elongation below about 90%; further: some results filed as inactive read as strong as hits
Target sequence (P03300 1749-2209 limits assumed): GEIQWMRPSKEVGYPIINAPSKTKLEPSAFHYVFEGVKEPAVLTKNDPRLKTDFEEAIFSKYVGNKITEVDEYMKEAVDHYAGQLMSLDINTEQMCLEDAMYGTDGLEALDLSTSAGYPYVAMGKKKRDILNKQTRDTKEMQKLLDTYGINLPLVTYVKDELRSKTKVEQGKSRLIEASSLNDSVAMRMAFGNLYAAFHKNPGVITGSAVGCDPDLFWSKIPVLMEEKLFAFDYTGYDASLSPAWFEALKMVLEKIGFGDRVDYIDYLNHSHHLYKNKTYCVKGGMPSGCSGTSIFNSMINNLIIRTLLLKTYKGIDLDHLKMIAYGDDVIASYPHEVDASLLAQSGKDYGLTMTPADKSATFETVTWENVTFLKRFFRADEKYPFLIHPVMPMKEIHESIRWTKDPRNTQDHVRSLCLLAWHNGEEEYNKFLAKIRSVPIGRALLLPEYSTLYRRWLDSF
PV pol inh intensity: recorded beside PV pol inh, whose call it bears; % elongation; measured here: total intensity read-out; formula for this scale not given here;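 total fluorescence in place of polarization; lower means less elongation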
An asterisk follows results filed as active. This is a subset. The share of hits here may be higher or lower than overall.

Molecule	PV pol inh	PV pol inh intensity
Cc1cc(C)cc(NC(=O)Cn2c(=O)c3ccccc3n3nncc23)c1	106	106
Cc1cc2oc(=O)cc(C)c2c2occ(-c3ccc(Cl)cc3)c12	104	109
CCOC(=O)C1CCN(S(=O)(=O)c2cc(Br)cc3c2N(C(=O)CC)CC3)CC1	106	109
CCc1ccc(S(=O)(=O)c2nnn3c2nc(NCc2cccs2)c2sccc23)cc1	102	106
CCOC(=O)c1ccc(NC(=O)CC2C(=O)N(c3ccccc3)C(=O)N2C2CCCCC2)cc1 (centres undefined)	100	98
COc1ccc(Br)cc1CNC(=O)CCSCc1ccc(C)cc1	105	109
Cc1ccc(-n2ncc(C(=O)N(C)Cc3ccccc3)c2-n2cccc2)cc1	105	109
CC(O)CNc1nc2c(c(=O)n(Cc3ccc(Cl)cc3)c(=O)n2C)n1C (centres undefined)	109	111
O=C(Nc1ccc(S(=O)(=O)N(Cc2ccccc2)c2ccccc2)cc1)c1ccc([N+](=O)[O-])cc1	107	112
COc1ccc2nc(NC(=O)c3ccc(S(=O)(=O)N4CCC(C)CC4)cc3)sc2c1	109	110
COc1ccc(N(Cc2cccs2)C(=O)c2ccc(Br)o2)cc1	110	105
CN(Cc1ccccc1)c1nnc(NC(=O)Nc2cccc(Br)c2)s1	108	100

One compound at a time, from the list above:
Cc1cc(C)cc(NC(=O)Cn2c(=O)c3ccccc3n3nncc23)c1 is entered as PV pol inh: 106; PV pol inh intensity: 106
CCc1ccc(S(=O)(=O)c2nnn3c2nc(NCc2cccs2)c2sccc23)cc1 is entered as PV pol inh: 102; PV pol inh intensity: 106
COc1ccc(N(Cc2cccs2)C(=O)c2ccc(Br)o2)cc1 is entered as PV pol inh: 110; PV pol inh intensity: 105

(further entries)
Molecule	PV pol inh	PV pol inh intensity
O=C(NCc1ccccc1)c1ccc(CS(=O)(=O)c2c(Cl)cccc2Cl)o1	106	106
CC1CCCN(c2ncnc3c2cnn3-c2ccc(F)cc2)C1 (centres undefined)	105	112
Cc1cccc(OCCSc2nc3ccc(NC(=O)COc4ccccc4)cc3s2)c1	104	104
COc1ccc(NC(=O)Nc2cccc(OCc3cc(=O)n4cccc(C)c4n3)c2)c(OC)c1	99	113
Cc1ccc(-n2ncc3c(=O)n(Cc4cccc(Cl)c4)cnc32)cc1C	108	111
CC(=O)N1CCc2c(sc3c2c(=O)n(CCc2ccccc2)c(=O)n3CC(=O)Nc2ccc(C)c(F)c2)C1	104	98
O=C(Nc1ccc(OC(F)(F)F)cc1)C(NS(=O)(=O)c1cccc2nsnc12)c1ccccc1 (centres undefined)	106	108
COc1ccc2nc3oc(C(=O)NCc4ccccc4OC)cc3cc2c1	109	114
CC(C)CC1Nc2ccc(C(=O)NCCCOC(C)C)cc2NC1=O (centres undefined)	107	109
CCOc1ccc(NC(=O)Cn2nc(CC)n3c(cc4sccc43)c2=O)cc1	107	110
COc1cc(OC)c(NC(=O)N2CCOc3ccc(C)cc32)cc1Cl	104	105
CCOC(=O)c1cc(-c2ccc(C)cc2)n(CCC(=O)NCc2ccccc2)c1C	105	104

3 entries already listed, arranged by SMILES length, low to high:
Molecule	PV pol inh	PV pol inh intensity
COc1cc(OC)c(NC(=O)N2CCOc3ccc(C)cc32)cc1Cl	104	105
O=C(NCc1ccccc1)c1ccc(CS(=O)(=O)c2c(Cl)cccc2Cl)o1	106	106
COc1ccc(NC(=O)Nc2cccc(OCc3cc(=O)n4cccc(C)c4n3)c2)c(OC)c1	99	113

Other records follow.
Molecule	PV pol inh	PV pol inh intensity
Cc1c(C(=O)N(C)C)sc2c1c(=O)n(-c1ccc(Cl)cc1)c(=O)n2CC(=O)C(C)(C)C	107	114
COC(=O)c1cccnc1-n1c(=O)c2cccnc2n(CC(=O)Nc2c(C)cc(C)cc2C)c1=O	105	106
Cc1ccc(-n2nnc(-c3nsc(NC(=O)c4ccccc4)n3)c2C)cc1	102	102
CCN(c1ccccc1)S(=O)(=O)c1ccc(F)c(C(=O)Nc2ccc(C)cc2)c1	108	105
O=C(O)Cc1sc(Nc2ccccc2)nc1-c1ccccc1	105	108
CC1CCN(S(=O)(=O)c2ccc3c(c2)N(CC(=O)O)C(=O)CO3)CC1	109	106
Cc1ccc(-n2c(-c3ccco3)nc3c(cnn3-c3ccccc3Cl)c2=O)cc1	108	104
CCOc1cccc2sc(N3CCN(C(=O)C4CC4)CC3)nc12	112	116
Cc1ccc(NC(=O)C2Cc3ccccc3N2C(=O)c2ccccc2)cc1Cl (centres undefined)	108	109
COc1ccc(CNc2nc(-c3ccc(OC)c(OC)c3)cc(C(F)(F)F)n2)cc1	102	105
O=C(c1cnc(N2CCOCC2)c2ccccc12)N1CCN(c2ccccc2F)CC1	106	104
OCCN1CCN(C(c2ccc(Cl)cc2Cl)c2sc3nc(-c4ccco4)nn3c2O)CC1 (centres undefined)	107	101

Entries listed so far that have a COOH group:
Molecule	PV pol inh	PV pol inh intensity
O=C(O)Cc1sc(Nc2ccccc2)nc1-c1ccccc1	105	108
CC1CCN(S(=O)(=O)c2ccc3c(c2)N(CC(=O)O)C(=O)CO3)CC1	109	106

Individual results from the results shown.
CCN(c1ccccc1)S(=O)(=O)c1ccc(F)c(C(=O)Nc2ccc(C)cc2)c1 in PV pol inh intensity: 105
Cc1c(C(=O)N(C)C)sc2c1c(=O)n(-c1ccc(Cl)cc1)c(=O)n2CC(=O)C(C)(C)C in PV pol inh: 107

The listing continues:
Molecule	PV pol inh	PV pol inh intensity
Cc1ccc(CNc2ncnc3onc(C)c23)cc1	108	98
CCCCNc1nc(Oc2ccc(=O)n(C)n2)nc(N(C)C)n1	108	113
CCCCN(C)C(=O)Cn1ncc2c([nH]c3ccc(C)cc32)c1=O	102	107
COc1ccc(O)c(C2=Nc3ccccc3N=C(c3ccccc3)C2)c1	104	104
COc1cccc(CNC(=O)C2CCCN(c3ncnc4onc(-c5ccc(F)cc5)c34)C2)c1 (centres undefined)	110	108
COc1ccc(Cl)cc1NC(=O)c1ccc(CN2C(=O)CCn3nc(C)cc32)cc1	107	113
Cc1ccc(C(=O)COC(=O)CCC(=O)Nc2ccc(Oc3ccccc3)cc2)cc1	106	108
COc1ccc(C(Nc2ccccn2)c2ccc3ccc(C)nc3c2O)cc1C (centres undefined)	122	134
Nc1ncc(S(=O)(=O)NCc2ccccc2F)cn1	104	107
CC1=C(C(=O)Nc2cccnc2)C(c2cccc(O)c2)n2nc(SCc3ccccc3)nc2N1 (centres undefined)	100	107
CCOC(=O)c1c(C)oc2ccc(N(C(=O)c3ccncc3)S(=O)(=O)c3ccc(F)cc3)cc12	101	104
CCCNC(=O)CN1C(=O)COc2ccc(S(=O)(=O)N3CCCC3)cc21	101	105
CCOc1ccc(CCNC(=O)c2ccc(C)c(-n3cnc4cccnc43)c2)cc1	111	112
CCOC(=O)C1=C(CS(=O)(=O)c2ccc(F)c(C)c2)NC(=O)NC1c1ccc(F)c(F)c1 (centres undefined)	105	104
COc1ccc(NC(=O)C2CCC(CNS(=O)(=O)c3cccc4nsnc34)CC2)cc1OC (centres undefined)	103	105
Cc1ccc2nc(Nc3ccc(C)c(F)c3)c3nncn3c2c1	105	106
Cc1nn(-c2ccc(N3CCCC3)nn2)c(C)c1CCC(=O)Nc1ccc(F)cc1F	99	107
CCOc1ccc(C(=O)OCc2cc(=O)n3cc(C)sc3n2)cc1	107	108
O=C(CSc1cn(CCNC(=O)c2c(F)cccc2F)c2ccccc12)Nc1ccc2c(c1)OCCO2	105	108
Cc1cccc(NC(=O)Nc2ccc(C)c(C)c2)n1	110	113
COc1ccc(-c2nc(CSCC(=O)N3CCN(c4ccccc4F)CC3)c(C)o2)cc1	102	101
CC1=C(C(=O)OCc2ccccc2)C(c2cccc(Cl)c2Cl)CC(=O)N1 (centres undefined)	109	109
CCn1cc2nc(SCC(=O)Nc3ccc(OC)c(Cl)c3)n(Cc3ccc(OC)cc3)c(=O)c2n1	102	99
COCCNC(=O)C1CCN(Cc2cc3ccccc3n2Cc2ccc(C)cc2)CC1	108	107
CCOc1ccc(NC(=O)CCS(=O)(=O)c2cc3c4c(c2)CCN4C(=O)CC3)cc1	110	107
COc1cccc(NC(=O)CSc2nc(O)c(C/C=C/c3ccccc3)c(=O)[nH]2)c1	102	112
CC1Cc2cc(S(=O)(=O)CCC(=O)Nc3ccc(F)cc3)ccc2N1C(=O)C1CC1 (centres undefined)	111	111
COc1ccc(S(=O)(=O)NCCc2sc(-c3ccccc3)nc2C)cc1F	109	111
CC(=O)c1cccc(S(=O)(=O)NCCc2csc3nc(-c4ccc(F)cc4)nn23)c1	103	109
CCOC(=O)c1c(NC(=O)c2ccccc2Cl)sc2c1CCCC2	105	110
Cc1cccc(C(=O)N2CCc3cc(CNC(=O)c4ccco4)ccc32)c1	103	110
Cc1nc2nc(SCC(=O)NCCc3ccc(Cl)cc3)nn2c(C)c1Cc1ccccc1	105	110
C#CCOc1c(Br)cc(C2C(C(=O)OC)=C(C)NC3=C2C(=O)c2ccccc23)cc1OCC (centres undefined)	104	110
COc1ccc(OC)c(S(=O)(=O)N2CCC(c3ccncc3)CC2)c1	101	100
CCOc1ccc(CCNC(=O)CCc2cn(Cc3ccc(F)cc3)c3ccccc23)cc1	102	105
CCOC(=O)c1c(C)sc(-c2c(-c3ccccc3)[nH]c3[nH]c(=O)[nH]c(=O)c23)c1O	127	124
COc1ccc(NC(=O)C2CCN(S(=O)(=O)c3ccc4c(c3)CCCC(=O)N4)CC2)c(OC)c1	103	99
COc1ccccc1OCC(=O)Nc1cc(-c2ccc(C)cc2)no1	106	107
COC(=O)c1c(NC(=O)COc2ccc(OC)cc2)sc2c1CCC(C)C2 (centres undefined)	106	111
CCOc1ccc(NC(=O)c2ccc(NC(=O)N3CCSc4ncccc43)cc2)cc1	110	113
O=C(COc1ccc2oc3c(c2c1)CCCC3)Nc1cccc(Br)c1	105	106
COc1ccc(S(=O)(=O)NCCc2nnc3ccc(SCC(=O)Nc4ccccc4C)nn23)cc1	101	94
COc1cc(C(CC(=O)Nc2cc(C)ccn2)N2Cc3ccccc3C2=O)cc(OC)c1OC (centres undefined)	114	105
CC(=O)c1cc2c(cc1N/C(=N/S(=O)(=O)c1ccc(F)cc1)c1ccccc1)OCO2	109	107
COc1ccc(CCNC(=O)Cn2c(=O)cc(C(F)(F)F)c3c(C)nn(C)c32)cc1OC	106	110
CC(C)c1cc(-c2nc(-c3ccc(Cl)cc3)no2)n[nH]1	100	107
CC(=O)Nc1ccc(NC(=O)CCC(=O)c2ccc(C)cc2)cc1	107	107
CCOc1ccccc1NC(=O)Cn1ccn(-c2ccccc2)c(=O)c1=O	114	115
COc1ccc(-c2ccc3c(N)c(C(=O)NCc4ccc(Cl)cc4)sc3n2)cc1	115	116
COc1ccc(OCC(=O)N2CCN(C(=O)c3cccc(OC)c3OC)CC2)cc1	108	111
COc1ccccc1N1CCN(CC(O)COc2ccc(Cl)c(C)c2)CC1 (centres undefined)	98	100
Cc1ccc(-n2ncc(C(=O)NCCCN3CCCCC3)c2C2CCN(C(=O)OC(C)(C)C)CC2)c(C)c1	112	112
COc1cc(CN(C(=O)c2oc3ccccc3c2C)C2CCS(=O)(=O)C2)cc(OC)c1OC (centres undefined)	111	112
Cc1ccccc1-c1nc2c3c(-c4ccccc4)c(-c4ccccc4)oc3ncn2n1	108	111
CCCN(CCC)C(=O)Cn1c(=O)n(-c2cccc(OC)c2)c(=O)c2c3c(sc21)CCCC3	106	111
CCOC(=O)c1c(NC(=O)c2noc3c2CC(C(C)(C)C)CC3)sc2c1CCCC2 (centres undefined)	76*	75*
CCCCSCCCNC(=O)c1cn(CC)c2ccc(S(=O)(=O)N(C)C3CCCCC3)cc2c1=O	102	104
O=C(NCCc1ccc(Cl)cc1)c1ccc2c(c1)N(Cc1ccc(Cl)cc1)C(=O)CS2	108	106
Cc1ccc(NC(=O)Cn2c(=O)n(CCC(=O)NCc3ccccc3Cl)c(=O)c3ccccc32)c(C)c1	103	103
CC(=O)Nc1cccc(NC(=O)CSc2ccc(-c3sc(-c4ccccc4)nc3C)nn2)c1	110	111

Continued:
Molecule	PV pol inh	PV pol inh intensity
COc1ccc(-c2cc(C(=O)NCc3ccc(F)cc3)c3c(-c4ccc(F)cc4)[nH]nc3n2)cc1OC	105	108
Cc1c(NC(=O)Cc2ccc(F)cc2)cccc1-c1nc2cccnc2s1	108	106
O=C(COC(=O)c1cc(-c2cccs2)nc2ccccc12)c1ccc(Br)cc1	109	109
COc1ccc(NC(=O)CN2C(=O)COc3ccc(S(=O)(=O)N4CCCCC4)cc32)cc1Cl	114	111
Cc1nc(SCCOc2ccc(Cl)cc2)[nH]c(=O)c1Cc1ccccc1	111	111
COc1cccc(CNC(=O)c2cccc(NC(=O)c3nsc4ccccc34)c2)c1	102	107
Cc1cc(Br)cc(C)c1NC(=O)c1sc2ncn(Cc3cccc(F)c3)c(=O)c2c1C	104	106
CCOC(=O)c1ccc(NC(=O)CCc2c(C)nc3nc[nH]n3c2=O)cc1	104	105
Cc1cc(SCC(=O)NCc2ccccc2Cl)nc(=O)[nH]1	107	107
COc1ccc(-c2nc3ccccc3s2)cc1NC(=O)c1ccccc1OC	104	109
CCn1c(=O)c2cc(C(=O)NCCCN(C)Cc3ccccc3)sc2c2ccccc21	87	99
COc1ccc2c(c1)-c1nc(NC(=O)c3ccc(OC)c(Br)c3)sc1CC2	106	103
